GIV Gai3 FP: inhibitors of GIV GBA-motif binding to rat Galpha-i3; 210,000 tested, 0.42% active; percent of control (FP), % (concentration not given with the values); AID 1224905; Galpha-i3/FITC-GIV peptide fluorescence polarization, 90 min; hits give low values; scaled: aluminum fluoride 0%, vehicle 100%; P08753;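 active = replicate mean at 85% of control or lower, very high polarization wells dropped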;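 also: wells of about 15 µL received 100 nL stock; the first replicate is given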
Target sequence (P08753 whole entry, looked up): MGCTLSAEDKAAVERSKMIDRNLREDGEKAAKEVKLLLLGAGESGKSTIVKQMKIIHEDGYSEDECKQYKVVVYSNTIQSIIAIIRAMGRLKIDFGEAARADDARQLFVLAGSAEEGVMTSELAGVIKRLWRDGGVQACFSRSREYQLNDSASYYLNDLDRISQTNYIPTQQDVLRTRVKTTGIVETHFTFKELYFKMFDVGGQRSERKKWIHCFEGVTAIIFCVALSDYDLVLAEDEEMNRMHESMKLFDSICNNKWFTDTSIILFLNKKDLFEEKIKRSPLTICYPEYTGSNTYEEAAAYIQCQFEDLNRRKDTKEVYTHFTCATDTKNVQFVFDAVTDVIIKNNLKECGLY
Sa growth 42C: S. aureus growth inhibition; S. aureus RN4220 growth, OD600, 20 h, 42 °C; hits give low values; relative growth, % (concentration not given with the values); 170,000 tested, 0.53% active; AID 720641;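 active = growth at 42 °C up to 50% and 20 or more points under that at 30 °C, or under 10% at both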;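 also: 300 nL library stock went into each well; scaled to the means of positive and negative controls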
HCMV NEC inh: disrupts HCMV UL50-UL53 complex binding | HTRF UL50-UL53 interaction, normalized percent inhibition | inhibition, % (no concentration beside the values) | 190,000 tested, 0.15% active | AID 1918969;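 active = both replicates at 50% or more, plus weaker picks with an unusually low signal ratio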;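 also: stock transfer was 100 nL into about 20 µL; 0% = negative control wells and 100% = wells with untagged competitor protein; inactives centre near -12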
Sa growth 42C second temp: also measured in Sa growth 42C; calls as there; relative growth, %; measured here: growth at 30 °C;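 optical density after 20 h as mean of two plates; 100% = untreated growth and lower means inhibition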
Numbers without * were called inactive; / = not tested or not shown; & = joins results of further samples.

The line under a structure holds: GIV Gai3 FP | Sa growth 42C | Sa growth 42C second temp | HCMV NEC inh
> CCN(c1ccccc1C)S(=O)(=O)c1ccc(N2CCCCS2(=O)=O)cc1
 : 98 | 110 | 102 | /
> Cc1[nH]c(C(=O)N2CCC(CC(=O)NCc3ccc(F)cc3)CC2)c(C)c1C(=O)OC(C)C
 : 105 | / | / | -5
> CC1CCN(c2ccc(C#N)cc2)CC1
 : / | 107 | 77 | -10
> Cc1nn(-c2ccccc2)nc1C(=O)OCc1ccc(C#N)cc1
 : / | 100 | 106 | 4
> Cc1ccc(S(=O)(=O)N2C(=O)c3ccccc3C2=O)cc1
 : 102 | 116 | 95 | -6
> O=C(C1CCCN(S(=O)(=O)c2ccc(Br)s2)C1)N1CCN(Cc2ccc3c(c2)OCO3)CC1 (configuration not stated)
 : 108 | 94 | 82 | -22
> CCOC(=O)C1CCN(C(=O)CCS(=O)(=O)c2ccc3c(c2)oc(=O)n3C)CC1
 : 110 | / | / | -11
> COC(=O)c1cc(C(O)(C(F)(F)F)C(F)(F)F)c(N)s1
 : / | 106 | 103 | -8
> CCOCC(=O)Nc1nc2ccccc2s1
 : 100 | 121 | 73 | -4
> CSC(SC)=C(C#N)C(=O)c1cccc(C)c1
 : 104 | 96 | 87 | -11
> O=C1c2ccccc2C(=O)c2c1oc1c3c(ccc21)OCN(C1CCCC1)C3
 : / | 97 | 61 | -50
> COC(=O)Nc1sc2c(c1C(=O)OC)CCC2
 : 117 | 93 | 67 | -8
> CCOC(=O)c1ccc(N2C(=O)C(Oc3ccccc3C)C2c2ccc(C(=O)OC)cc2)cc1 (configuration not stated)
 : 98 | / | / | 3
> Cc1ccccc1-c1nc2scc(CCNC(=O)c3ccc(F)c(F)c3)n2n1
 : 103 | / | / | 7
> C#CCOc1c(Br)cc(/C=c2\sc3nc4c(C)cc(C)cc4n3c2=O)cc1OC
 : 315 | / | / | -18
> Cc1cc(C)n2ncc(/C(N)=N/OC(=O)Nc3ccccc3)c2n1
 : 106 | 97 | 88 | -14
> COC(=O)CN1C(C(=O)c2ccccc2)=C(OC(=O)c2ccccc2)c2ccccc2S1(=O)=O
 : 95 | 93 | 85 | -12
> CCOC(=O)c1nc2c3nsnc3ccc2n(CC)c1=O
 : 101 | / | / | -118
> CCOC(=O)c1cc(-c2ccc(OC(F)F)cc2)nc2nc(SC)[nH]c(=O)c12
 : / | 79 | 94 | -34
> Cc1cc(C)cc(Nc2cc(-c3ccccc3)nc(C)n2)c1
 : 105&107 | 64 | 65 | -36&0
> CC(C)(C)c1ccc(NC(=O)CCSc2ccc3ccccc3n2)cc1
 : 101 | 109 | 96 | /
> CCn1c(COC(=O)Cc2n[nH]c(=O)c3ccccc23)nc2cc(S(=O)(=O)N(C)C)ccc21
 : / | 110 | 109 | -5
> Nc1nonc1-c1nc2ccccc2n1Cc1c(Cl)cccc1Cl
 : 115 | 91 | 87 | -65
> CC(=O)OC1COC(n2nnc3c(NC(=O)C(F)(F)F)cccc32)C(OC(C)=O)C1OC(C)=O (configuration not stated)
 : / | 72 | 92 | -4
> CCN(CC)c1nc(C)nc2c1sc1nc3c(cc12)COC(C)(C)C3
 : 100 | 98 | 89 | 8
> N#CC1=C(N)Oc2cc(O)ccc2C1C1CCCCC1 (configuration not stated)
 : / | 96 | 94 | -4
> NC(=O)c1nc(Nc2ccccc2)sc1NC(=O)c1c(F)cccc1F
 : 100 | 105 | 97 | /
> CC(C)(C)c1ccc(-c2cc(NC(=O)c3ccccc3F)n[nH]2)cc1
 : 104 | 85 | 78 | 0
> CC(=O)Nc1c(C)nn(-c2ccccc2)c1N1CCC(C(=O)Nc2cc(F)ccc2F)CC1
 : 100 | 80 | 89 | /
> CCCOC(=O)c1ccc2c(c1)C(=O)NC2=O
 : 105 | 95 | 90 | -89
> N#Cc1ccccc1Cn1c(=O)n(CCCC(=O)NCc2ccc3c(c2)OCO3)c(=O)c2sccc21
 : 110 | 89 | 88 | 17
> O=C(NCc1ccccc1Cl)NCc1noc2ccccc12
 : 98 | 107 | 85 | /
> O=C(CN1C(=O)COc2ccccc21)Nc1cccnc1
 : 104 | 87 | 94 | -29
> CC(NC(=O)CCc1cn(-c2ccccc2)nc1-c1ccc2c(c1)OCO2)c1ccc2c(c1)OCCO2 (configuration not stated)
 : 96 | / | / | -28
> COc1ccc(N2C(=O)c3ccccc3NC2c2ccc(OC)c(COc3ccc(NC(C)=O)cc3)c2)cc1 (configuration not stated)
 : 101 | / | / | -12
> CC1(C)Cc2cccc(OCC(=O)NCC(F)(F)F)c2O1
 : / | 80 | 87 | -20
> CC(C)CC(=O)NCC1(N2CCOCC2)CCCCC1
 : 101 | / | / | -17
> CCc1ccccc1NC(=O)Cn1nc(N2CCN(c3ccccc3OC)CC2)ccc1=O
 : 111&107 | 92 | 88 | -21
> Cc1nn(-c2nc3ccccc3[nH]2)c(N)c1-c1ccccc1
 : 106 | 85 | 40 | 11
> S=C(Nc1ccccc1)Nc1ccccc1-c1nc2ccccc2[nH]1
 : 101 | 84 | 96 | 28
> CCOC(=O)c1cc2c(=O)n3ccccc3nc2n(Cc2ccco2)c1=NC(=O)c1ccc(F)cc1
 : 104 | 111 | 78 | -7
> O=C1CCC(C(=O)OCC(=O)Nc2ccc(F)cc2)=NN1
 : / | 105 | 89 | -8
> COc1ccc(N(CC(=O)NCCc2ccccc2)S(=O)(=O)c2c(C)nn(C)c2C)cc1
 : 106 | 84 | 99 | -9
> CCN(CC)C(=O)c1sc2c(c1C)c(=O)n(Cc1ccccc1)c(=O)n2Cc1cc(C)ccc1C
 : 99 | 94 | 75 | /
> CCOC(=O)c1cc2c(=O)n3ccccc3nc2n(C(C)C)c1=NC(=O)C(C)(C)Oc1ccc(Cl)cc1
 : 104 | 107 | 87 | -30

Random excerpt: six entries already listed.
The line under a structure holds: GIV Gai3 FP | Sa growth 42C | Sa growth 42C second temp | HCMV NEC inh
> CCN(CC)C(=O)c1sc2c(c1C)c(=O)n(Cc1ccccc1)c(=O)n2Cc1cc(C)ccc1C
 : 99 | 94 | 75 | /
> Cc1nn(-c2ccccc2)nc1C(=O)OCc1ccc(C#N)cc1
 : / | 100 | 106 | 4
> CSC(SC)=C(C#N)C(=O)c1cccc(C)c1
 : 104 | 96 | 87 | -11
> Cc1cc(C)cc(Nc2cc(-c3ccccc3)nc(C)n2)c1
 : 105&107 | 64 | 65 | -36&0
> COC(=O)CN1C(C(=O)c2ccccc2)=C(OC(=O)c2ccccc2)c2ccccc2S1(=O)=O
 : 95 | 93 | 85 | -12
> CCc1ccccc1NC(=O)Cn1nc(N2CCN(c3ccccc3OC)CC2)ccc1=O
 : 111&107 | 92 | 88 | -21

Next part
The line under a structure holds: GIV Gai3 FP | Sa growth 42C | Sa growth 42C second temp | HCMV NEC inh
> COC(=O)c1c(NC(=O)c2nc(SCc3ccc(F)cc3)ncc2Cl)sc2c1CCCC2
 : 97 | 95 | 90 | -19
> Cc1ccccc1-n1c(CSC(=N)N)nc2ccccc2c1=O
 : / | 62 | 77 | -18
> COCCCNC(=O)CN1C(=O)COc2ccc(S(=O)(=O)N3CCOCC3)cc21
 : 108 | 86 | 96 | 4
> CC(C)C(=O)c1cn(CC(=O)N2CCCC2)c2ccccc12
 : 100 | 85 | 88 | 4
> O=C(Oc1ccc2c(c1)OCO2)c1ccc(CS(=O)(=O)c2ccccc2)o1
 : / | 102 | 81 | -8
> CC(C)CNC(=O)c1nn2c(C(F)(F)F)cc(-c3cccs3)nc2c1Br
 : 100 | / | / | 8
> CCN(CC)C(=O)c1cc2cccnc2n(Cc2ccc(F)cc2)c1=O
 : 103 | / | / | -13
> CC(C)n1c(SCC(=O)N2CCc3ccccc32)nc2c1c(=O)n(C)c(=O)n2C
 : 105 | 108 | 98 | -22
> Nc1nc(SCC(=O)c2ccc(S(=O)(=O)N3CCCCC3)cc2)nc(-c2ccco2)n1
 : / | 102 | 75 | -9
> Cc1cccc(NC(=O)C2CCCN(S(=O)(=O)c3c(C)n[nH]c3C)C2)c1 (configuration not stated)
 : 105 | 110 | 98 | 29
> COc1ccc(C)cc1NC(=S)NN1CCOCC1
 : 99 | 66 | 58 | 1
> CCOC(=O)c1sc(C)c2c(=O)[nH]c(-c3ccccc3)nc12
 : 104 | 96 | 81 | /
> Cc1ccccc1NC(=O)Cn1nc(-c2ccc(F)cc2)c2cnc3ccccc3c21
 : 96 | 78 | 75 | /
> O=C(O)C1CCCCC1C(=O)N1CCCCCC1 (configuration not stated)
 : 100 | 109 | 75 | -2
> COC(=O)c1cnc(N2CCN(c3ccc(OC)cc3)CC2)c2ccccc12
 : 99 | 97 | 90 | /
> CCOC(=O)C1CCN(Cc2coc3ccc(Cl)cc3c2=O)CC1
 : 135 | 81 | 102 | 2
> CC(C)(C)n1nc(-c2ccc(F)cc2)c(C#N)c1N
 : 100 | / | / | -12
> Cn1c(N)nc(N)c(N)c1=O
 : / | 94 | 75 | -48
> Nc1ccccc1NC(=S)Nc1ccccc1C(F)(F)F
 : 101 | 96 | 76 | -11
> Cc1ccc(NC(=O)COC(=O)c2ccc3c(c2)NC(=O)C2CCCN32)cc1 (configuration not stated)
 : / | 76 | 76 | -30
> O=C(CCc1cn(-c2ccccc2)nc1-c1ccc2c(c1)OCO2)NC1CC1
 : 98 | / | / | -10
> CNC(=O)C1CCC(Cn2c(=O)c3sccc3n(CC(=O)N3CCC(C)CC3)c2=O)CC1 (configuration not stated)
 : 98 | 69 | 88 | /
> Cc1cc2nc(Cc3ccc4c(c3)OCO4)c(=O)[nH]c2cc1C
 : 96 | / | / | -20
> COC(=O)C1=C(O)CC(C(=O)OC)=C(O)C1
 : / | 113 | 90 | -14
> Cc1cc(C)nc(NC(=NCCc2c[nH]c3ccc(Cl)cc23)NC(=O)c2ccccc2C)n1
 : 104 | 86 | 92 | -23
> COc1cccc(C(=O)NCCSc2c[nH]c3ccccc23)c1OC
 : 103 | 123 | 70 | /
> CC(C)c1cnc2c(c1SCc1cccc(F)c1)c(=O)n(C)c(=O)n2C
 : 102 | 53 | 79 | /
> COc1cccc(OC)c1C(=O)N(C(=O)c1c(OC)cccc1OC)c1oc(-c2ccco2)c(-c2ccco2)c1C#N
 : / | 112 | 103 | -5
> Cc1ccc(S(=O)(=O)CCc2nnc(NC(=O)c3ccc([N+](=O)[O-])cc3)s2)cc1C
 : 103 | / | / | -30
> COc1ccc(Nc2ncc3c(n2)CCN(Cc2ccccc2C)C3)c(OC)c1
 : 105 | 105 | 94 | /
> O=C(CN1C(=O)C2(SCC(=O)N2c2cccc(Cl)c2)c2ccccc21)NCc1ccccc1 (configuration not stated)
 : 107 | 112 | 91 | /
> Cc1nccn1CCCN
 : 99 | 87 | 95 | -15
> CC(C)n1c(=O)c2oc3ccccc3c2n(CC(=O)Nc2ccccc2Cl)c1=O
 : 103 | 93 | 104 | /
> COCCn1c(C)cc(/C=C(\C#N)C(=O)OCc2cc(=O)n3c(n2)sc2ccccc23)c1C
 : / | 82 | 56 | -17
> CCC(C)c1ccc(S(=O)(=O)N2CCN(C(C)C(=O)NC3CC3)CC2)cc1 (configuration not stated)
 : / | 103 | 99 | 12
> CC(=O)Oc1ccc2c(=O)c(-c3cc4ccccc4o3)coc2c1
 : 98 | 86 | 94 | -10
> NNC(=O)Nc1ccc(C(F)(F)F)cc1Cl
 : 101 | 71 | 56 | 0
> Cc1ccc2nc(Cl)c(CO)cc2c1
 : 104 | 86 | 107 | -21
> N#Cc1ccc(CSc2ncnc3ccccc23)cc1
 : / | 97 | 67 | -10
> Cc1c(NC(=O)CCN2C(=O)/C(=C/c3cccs3)SC2=S)c(=O)n(-c2ccccc2)n1C
 : 107 | / | / | 3
> COc1ccc(CNC(=O)C2CCN(c3nc4cccnc4s3)CC2)c(OC)c1
 : 99 | 98 | 100 | 0
> CC(c1ccccc1)n1cnc2c3cc(F)ccc3n(Cc3ccccc3F)c2c1=O (configuration not stated)
 : 103 | / | / | -22
> Cc1cc(NC(=O)Cc2ccccc2)ccc1-c1cc2ccccc2oc1=O
 : / | 97 | 87 | -12
> Cc1ccc(-c2nc(CSCC(=O)N3CCC(C(N)=O)CC3)c(C)o2)cc1
 : 98 | 97 | 95 | -2
> COc1ccc(-c2noc(-c3scc(-c4cccc(C)c4)c3-n3cccc3)n2)cc1OC
 : 101 | / | / | -16
> Cc1ccc(NC(=O)Cn2ccn(-c3ccc(F)c(F)c3)c(=O)c2=O)cc1C
 : 106 | 131 | 88 | -22
> Cc1cn(-c2ccccc2)nc1C(=O)Nc1nn(C)c2ccccc12
 : 105 | 98 | 85 | -13
> O=C(Cn1c(C(=O)N2CCN(C3CCCCC3)CC2)cc2sccc21)c1ccccc1
 : 104 | 97 | 81 | -1
> CN1c2ccccc2-c2nc(SCC(=O)Nc3ccccc3F)ncc2S1(=O)=O
 : 109 | 113 | 93 | -22
> C[n+]1cccc(C(=O)NO)c1
 : 105 | 101 | 91 | /
> O=C(Nc1nccs1)C1CCCN(c2ccc3cc(S(=O)(=O)N4CCCC4)ccc3n2)C1 (configuration not stated)
 : 108 | / | / | -33
> CC(C)Oc1ccccc1C1Nc2ccccc2C(=O)N1c1ccc2c(c1)OCCO2 (configuration not stated)
 : / | 103 | 92 | 11
> COc1ccc(C(=O)c2ccccc2)c(OCC(=O)NC2CC2)c1
 : 99 | 90 | 83 | -20
> COc1cccc(-c2nnc(-c3ccccc3NS(=O)(=O)c3ccc(Cl)cc3)o2)c1
 : 101 | 88 | 87 | -6
